Screens: PubChem, Broad Institute
Hedgehog cleavage: Hh protein inhibition, biochemical readout – plate reader, single concentration, primary screen (AID 588832); inhibition, % at 30.3 µM; Biochemical plate reader assay, Hedgehog inhibition; hits give high values; 8,000 tested, under 10 active; in the data active means inhibition from about 57%;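 further: 0% = neutral control wells and 100% = positive control wells; cholesterol-driven self-cleavage of fly hedgehog protein by fluorescence polarization; read one hour after cholesterol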
Numbers without * were called inactive. A portion of the library; count on the stated rates, not on these rows.

SMILES,Hedgehog cleavage
Cn1c(=O)c2c(nc(N3CCOCC3)n2CCSc2ncccn2)n(C)c1=O,1.8
O=C1c2oc3ccccc3c(=O)c2C(c2cccc(O)c2)N1c1ccccn1 (stereo unspecified),-2.4
O=C(Cc1ccccc1)NC1CCCCC1,5.2
CCCCCOc1ccc(/C=N/NC(=O)c2nnn(-c3nonc3N)c2CN2CCCCCC2)cc1,5.4
CC1Cc2nc(SCC(=O)NCc3ccco3)n(Cc3ccccc3)c(=O)c2S1 (stereo unspecified),8.0
COc1cc(NC(=O)c2cccc3c2C(=O)N(Cc2cccnc2)C3)cc(OC)c1OC,-0.2
CCCC(=O)n1nc(-c2ccco2)nc1SCc1ccccc1,25.0
Cc1cc(C)cc(NC(=O)c2cccc(NC3=NC4CS(=O)(=O)CC4S3)c2)c1 (stereo unspecified),3.4
CCCCCCn1c(SCCOC)nc2c1c(=O)[nH]c(=O)n2C,9.5
Cc1oc(-c2ccccc2Cl)nc1CS(=O)(=O)CC(=O)NCCN1CCOCC1,9.1
Cc1cccc(NS(=O)(=O)c2cc3c(cc2C)N(C)CCO3)c1,3.5
Cc1nnc(NC(=O)CSC2CCCCC2)s1,4.4
CC(CNC(=O)CCC(=O)N1CCOc2ccccc21)c1ccccc1 (stereo unspecified),3.4
O=S(=O)(NCc1csc(-c2cccnc2)n1)c1cccs1,9.6
CCSc1nnc(NC(=O)CCn2c(=O)oc3ccccc32)s1,5.1

Next part.
SMILES,Hedgehog cleavage
COc1ccc(C)cc1NC(=O)CN(C)S(=O)(=O)c1ccc2c(c1)c(=O)n(C)c(=O)n2C,-1.8
COc1ccc(CNC(=O)c2ccc3c(c2)N(C)C(=O)CS3=O)cc1 (stereo unspecified),15.6
Cc1ccc(C)c(NC(=O)CSc2nnc(-c3ccccc3)o2)c1,-2.2
O=C(O)c1cnn(-c2ccccc2)c1-n1cccc1,2.6
O=C(Cn1cc2c(n1)CCCCC2)NCCCN1CCOCC1,10.7
CC(C)[C@@H](C(=O)NC1CCN(Cc2ccccc2)CC1)N1C(=O)N2CCc3c([nH]c4ccccc34)[C@@]2(C)C1=O,3.5
COc1ccc2[nH]c3c(c2c1)CCN1C(=O)N([C@@H](C)C(=O)NCc2ccc(C)cc2)C(=O)[C@]31C,0.0
O=C(O)Cn1cc(/C=C2/NC(=O)N(c3ccc(Cl)cc3)C2=O)c2ccccc21,5.4
CCN(C(=O)c1ccc2c(Cl)c3c(nc2c1)CCC3)c1ccc(C)c(C)c1,-1.8
Cc1ccnc(NC2c3ccccc3C(=O)N2Cc2ccccc2Cl)c1 (stereo unspecified),5.4
Cc1ccc(-c2oc3ccccc3c(=O)c2O)cc1,14.9
Cc1cccc(-c2nc(CS(=O)CC(=O)N3CCCCC3)c(C)o2)c1 (stereo unspecified),0.9
Cc1ccc(CCNC(=O)CCS(=O)(=O)c2ccc3nc(C)sc3c2)cc1,0.8
Cc1cc(OCC(=O)NCCc2c[nH]c3ccccc23)c2c(C)cc(=O)oc2c1,1.6
COC(=O)Cn1c(CN2CCN(c3ccc(F)cc3)CC2)nc2c1c(=O)n(C)c(=O)n2C,6.8

Continued.
SMILES,Hedgehog cleavage
c1ccc2c3c([nH]c2c1)C1(CCCCC1)NCC3,5.1
OC1COC(OCC2OC(OCc3ccccc3)C(O)C(O)C2O)C(O)C1O (stereo unspecified),7.0
O=CC(O)C1OC(=O)C(O)C1O (stereo unspecified),12.6
CC(C)OCCCNS(=O)(=O)c1ccc2c(c1)oc(=O)n2C,-2.8
CCOc1ccc(C2CC(c3ccc(F)cc3)n3ncnc3N2)cc1 (stereo unspecified),0.0
CCCCCOC(=O)c1[nH]c2c(c1C)C(=O)CC(c1ccco1)C2 (stereo unspecified),23.4
CCOC(=O)c1c(NC(=O)CSc2c[nH]c3ccccc23)sc2c1CCC2,11.5
Cc1nc2sccn2c(=O)c1S(=O)(=O)N1CCN(c2ccccc2F)CC1,5.2
CCN(CC)S(=O)(=O)c1ccc(NC2c3ccccc3C(=O)N2CCN2CCOCC2)cc1 (stereo unspecified),0.9
COc1ccc(NC(=O)c2ccc3c(c2)N(C)CCS3)cc1,9.1
CCOC(=O)C1CCCN(C(=O)c2cc3c(=O)n(C)c4ccccc4c3n2C)C1 (stereo unspecified),12.5
CC(=O)c1c(C)[nH]c(C(=O)Nc2cc(C)ccc2C)c1C,11.1
COc1cccc(CNC(=O)C2CCN(S(=O)(=O)c3c(C)nn(C)c3C)CC2)c1,3.6
C[C@@H](NC(=O)C(=O)c1c[nH]c2ccccc12)c1ccccc1,3.4
COC(=O)c1ccccc1NC(=O)CS(=O)(=O)Cc1nc(-c2ccc(C)cc2)oc1C,7.1

New compounds follow:
SMILES,Hedgehog cleavage
CCCCc1cc(=O)oc2cc(OC(C)C(=O)NCC3CCC(C(=O)O)CC3)c(Cl)cc12 (stereo unspecified),3.4
COc1ccc(CCNC(=O)Cc2cc(=O)[nH]c(=O)[nH]2)cc1OC,19.1
O=C(NCCCN1CCCC1)c1ccc(CS(=O)(=O)c2ccc(Br)cc2)o1,0.0
COc1c(OC)c(O)c2c(=O)cc(-c3c(O)cccc3O)oc2c1OC,9.8
O=C(N1CCOCC1)N1CCN(c2ccccc2F)CC1,3.4
Cc1c2cnn(CC(=O)NCc3ccccn3)c(=O)c2c(C)n1Cc1ccccc1,3.3
Cc1ccccc1NC(=O)c1ccc(CN2CC(=O)N3CCCCC3C2=O)cc1 (stereo unspecified),5.3
COc1ccccc1S(=O)(=O)Cc1ccc(C(=O)NCc2cccnc2)o1,6.5
N#CC1=C2SCN(Cc3ccccc3)CN2C(=O)CC1c1cccs1 (stereo unspecified),7.1
COc1ccc2[nH]c3c(c2c1)CCN1C(=O)N([C@@H](C)C(=O)NCc2ccccc2OC)C(=O)[C@]31C,5.1
Cc1ccc(NC(=O)c2cc(S(=O)(=O)N3CCOCC3)cn2C)cc1F,3.5
CCc1c(O)nc(SCC(=O)N2CCc3cc(OC)c(OC)cc3[C@@H]2C)[nH]c1=O,8.2
O=C1CCC[C@H]2c3[nH]c4ccccc4c3CCN12,10.3
COc1ccc(NC(=O)C2CCCN2S(=O)(=O)c2ccc3c(c2)CCC(=O)N3)c(OC)c1 (stereo unspecified),10.7
COc1cc(C(=O)NCCc2cn3ccccc3n2)cc(OC)c1OC,10.7

Further records
SMILES,Hedgehog cleavage
CC(=O)OCCC(C)C,9.0
CC1=C(C(N)=O)C(c2ccccn2)n2nc(-c3ccccc3Cl)nc2N1 (stereo unspecified),16.7
N#CCCN1CCN(S(=O)(=O)c2ccc(S(=O)(=O)NC3CCCCC3)cc2)CC1,20.8
Cc1nc2sccn2c(=O)c1S(=O)(=O)NCC(C)c1ccccc1 (stereo unspecified),-1.9
COc1ccc(C(=O)/C=C/c2ccc(O)cc2)c2c1CC(O)C(C)(C)O2 (stereo unspecified),10.8
COc1cccc(C2c3c(oc4ccc(F)cc4c3=O)C(=O)N2CCCN2CCOCC2)c1 (stereo unspecified),8.7
Cc1ccccc1NC(=O)c1ocnc1C,6.7
CN(CC1CCCO1)S(=O)(=O)c1ccc(C(=O)Nc2nc(-c3ccccn3)cs2)cc1 (stereo unspecified),4.5
O=c1sc(N2CCN(c3ccc(F)cc3)CC2)nc2ccsc12,5.2
COc1cc(C2N(c3cccc(Cl)c3)C(=O)C3CCCN32)cc(OC)c1OC (stereo unspecified),20.8
CCOC(=O)N1CCN(C(=O)CSc2nnc(-c3cccc(Cl)c3)o2)CC1,2.0
COc1ccc(NC(=O)CSc2nnc(Cn3c(=O)sc4ccccc43)n2C)c(OC)c1,8.3
COc1cc(Nc2cc(C)nc3ncnn23)cc(OC)c1OC,8.3
CCCS(=O)(=O)N1CCn2c(nc3ccccc32)C1,3.6
NC(=O)C1CCN(C(=O)COc2ccc3c(c2)oc(=O)c2ccccc23)CC1,4.9

Later entries:
SMILES,Hedgehog cleavage
CN(C)S(=O)(=O)c1ccc(C(=O)OCn2nnc3ccccc3c2=O)cc1,5.1
Cc1c(C(=O)OC2CCCC2)[nH]c2c1C(=O)CC(c1ccco1)C2 (stereo unspecified),19.2
Cc1cnc(NC(=O)CSc2nnc(COc3c(C)cccc3C)o2)s1,10.0
O=C(Nc1nc2ccccc2n1CCOc1ccc(Cl)cc1)c1ccco1,10.0
COC(=O)C1C(=O)c2c([nH]c(C(=O)OCCSC)c2C)CC1C (stereo unspecified),20.0
Cc1coc2cc3oc(=O)c(CCC(=O)NC4CC4)c(C)c3cc12,6.9
COc1cc(NC(=O)c2ccc(NC3=NC4CS(=O)(=O)CC4S3)cc2)cc(OC)c1OC (stereo unspecified),3.3
Cc1ccc(-n2c(=O)cc(N3CCCCCC3)[nH]c2=O)cc1,3.3
CC1C(=O)Nc2ccc(S(=O)(=O)NCc3ccc(Cl)cc3)cc2NC1=O (stereo unspecified),6.8
Cc1nnc(Sc2nc3c(c(=O)[nH]c(=O)n3C)n2Cc2ccccc2)s1,5.1
CC1CCCN(C(=O)c2nn(C)c3c2CSc2ccccc2-3)C1 (stereo unspecified),-1.7
COc1ccccc1-c1cc(C(=O)N2CCN(S(=O)(=O)c3ccc(C)cc3)CC2)[nH]n1,4.2
Nc1nonc1-n1nnc(C(=O)N/N=C/c2cccc(F)c2)c1CN1CCCCCC1,1.8
COc1ccc(OC)c2sc(NC(=O)c3ccc(Br)s3)nc12,7.1
CCOc1ccc(C2Oc3nc(SC)nnc3-c3ccccc3N2C(C)=O)cc1OC (stereo unspecified),10.0

The results go on:
SMILES | Hedgehog cleavage
CCOC(=O)C1CCN(C(c2ccc(OC)c(OC)c2)c2sc3nc(C)nn3c2O)CC1 (stereo unspecified) | 3.8
CCOC(=O)c1ccc(NC(=O)C2=C(C)Nc3nc(CCCO)nn3C2c2cccc(C)c2)cc1 (stereo unspecified) | 8.7
COc1cccc(C(=O)Nc2nnc(-c3ccccc3)s2)c1OC | 7.3
CC(C)(C)C(=O)NCCn1ccc2ccccc21 | -2.7
O=c1[nH]c2ccccc2s1 | 3.5
COc1cccc(-c2nc(CS(=O)(=O)CC(=O)NCc3ccccc3OC)c(C)o2)c1 | 7.3
COc1ccc(/C=C2\Oc3cc(OCC(=O)N4CCC[C@H]4C(=O)O)ccc3C2=O)c(OC)c1 | 4.9
CCS(=O)(=O)Nc1ccc(-c2nc3cccnc3s2)cc1 | 5.5

(cont.)
SMILES | Hedgehog cleavage
COc1ccc(C2=NS(=O)(=O)N(C)C(C(=O)N3CCC(C(N)=O)CC3)=C2)cc1 | 6.8
COc1ccc(N2C(=O)C(CC(=O)Nc3ccccc3)N(Cc3cccs3)C2=O)cc1 (stereo unspecified) | 5.3
CCOC(=O)CN1CC23C=CC(O2)C(C(=O)Nc2cc(OC)ccc2OC)C3C1=O (stereo unspecified) | 20.8
Cn1cc(S(=O)(=O)NCc2ccco2)c(=O)n(C)c1=O | -0.1
Cc1cc(C)c(C)c(S(=O)(=O)Nc2ccc(OCC(=O)O)cc2)c1C | 0.0
O=C(CSc1nc2ccccc2nc1N1CCCC1)Nc1ccc(Cl)cc1 | 10.5
Cc1ccc(-c2nc(CS(=O)CC(=O)NC3CCC(C)CC3)c(C)o2)cc1 (stereo unspecified) | 1.7
Cc1ccc(C)c(N2CCN(C(=O)c3cc4ccccn4n3)CC2)c1 | -14.6

Additional structures:
SMILES | Hedgehog cleavage
CCOC(=O)C1CCN(C(=O)c2cc3c(s2)-c2ccccc2OC3)CC1 | 16.7
CC1=C(C(=O)Nc2ccc(F)cc2)C(c2cccc(C)c2)n2nc(CCCO)nc2N1 (stereo unspecified) | 19.0
CCn1c(=O)cc(OCC(=O)Nc2ccccc2N2CCN(C)CC2)c2ccccc21 | 1.7
CCCc1cc(=O)oc2c3c(cc(OCC(=O)NCC4CCC(C(=O)O)CC4)c12)OC(C)(C)CC3 (stereo unspecified) | 5.2
O=Cc1ccc(O)cc1O | 12.1
CC(=O)OCC(=O)c1c[nH]c2ccccc12 | 5.1
O=C1CC2CS(=O)(=O)CC2N1C1CCCCC1 (stereo unspecified) | 12.5
CCOC(=O)c1ccc(NC(=O)C2CCN(S(=O)(=O)c3ccccc3)CC2)cc1 | 9.0

Continued:
SMILES | Hedgehog cleavage
CCN1CCN(C(=O)C2=CC(c3ccc(C)cc3)=NS(=O)(=O)N2C)CC1 | 5.3
CCn1c(C(=O)N2CCC(C(=O)N3CCN(c4ccccn4)CC3)CC2)cc2sccc21 | 6.8
CC(C)c1ccc(C2CC(=O)N3CN(C)CSC3=C2C#N)cc1 (stereo unspecified) | 1.8
COc1ccccc1S(=O)(=O)Cc1ccc(C(=O)NCc2ccc3c(c2)OCO3)o1 | 5.8
O=C(c1ccccc1)c1cnc2ccc(Cl)cc2c1N1CCOCC1 | 0.0
CCOc1ccc(CCNC(=O)Cn2ncn3nc(-c4ccc(OC)cc4)cc3c2=O)cc1 | 8.8
COc1ccccc1CCNC(=O)C(=O)NCC1OCCN1S(=O)(=O)c1ccc(OC)c(OC)c1 (stereo unspecified) | 13.6
O=C1c2ccccc2-c2nc3ncnn3c(-c3ccccc3Cl)c21 | 20.0
O=C(Cn1cc2c(n1)CCCCC2)NCCN1CCOCC1 | 0.0
CCn1cc(SCC(N)=O)c2ccccc21 | 4.4
COC(=O)C(C)n1cnc2c(nnn2-c2ccc(C)cc2)c1=O (stereo unspecified) | 3.5
